# Screening results as filed in PubChem BioAssay.
# GLA inh pH 4.5 = qHTS Assay for Inhibitors of Human alpha-Galactosidase at pH 4.5; Alpha-galactosidase A (Homo sapiens), P06280; purified enzyme, 4-MU-alpha-Gal fluorescence, pH 4.5; activity change, negative = inhibition, % at 105 µM; 230,000 tested, under 10 active; AID 1467, 2008; inconclusive = small, poorly fitted or top-dose-only inhibition, or a rising curve; inactive = flat fitted curve, though single readings scatter; no compound was filed as active;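 further: 0% = full activity with enzyme and -100% = basal without enzyme; dose as in the result columns while the protocol names 77 µM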
# Target sequence (P06280 whole entry, looked up): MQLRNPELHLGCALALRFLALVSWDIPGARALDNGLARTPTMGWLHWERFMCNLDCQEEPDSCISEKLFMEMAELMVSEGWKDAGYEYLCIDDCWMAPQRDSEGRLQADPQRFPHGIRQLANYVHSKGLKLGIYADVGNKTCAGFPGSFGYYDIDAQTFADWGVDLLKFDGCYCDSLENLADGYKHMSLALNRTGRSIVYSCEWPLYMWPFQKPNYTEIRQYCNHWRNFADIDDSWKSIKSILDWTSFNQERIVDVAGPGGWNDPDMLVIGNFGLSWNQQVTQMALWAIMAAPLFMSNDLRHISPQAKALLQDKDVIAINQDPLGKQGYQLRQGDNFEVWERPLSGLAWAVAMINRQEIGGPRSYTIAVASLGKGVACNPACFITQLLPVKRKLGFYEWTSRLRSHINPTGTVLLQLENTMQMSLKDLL
# miR-21 FLuc = qHTS Assay for Modulators of miRNAs and/orActivators of miR-21; HeLa miR-21 FLuc reporter, luciferase, 48 h; Potency, µM (series often up to 38.3 µM), without a hit: top-dose reporter change, positive = more light; 340,000 tested, under 10 active; AID 2288, 2010; active = well fitted rising curve with a large enough effect; inconclusive = small, poorly fitted or top-dose-only effect; inactive = no such curve, though single readings can be large or run the other way;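 further: % of control where 0% means no effect; miR-21 action dims this reporter so a rising signal means less miR-21 action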
#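 HeLa cells endogenously expressing miR-21, stably carrying CMV-driven firefly luciferase with a downstream miR-21 binding site, 2000 cells/well. Titrations up to approximately 40 uM, 48 hours; luciferase luminescence read.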
# Rango-impB inh = qHTS Assay for Inhibitors of Rango (Ran-regulated importin-beta cargo) - Importin beta complex formation. 0.031% of 340,000 active. Rango CFP/YFP FRET sensor + importin beta, 45 min. Importin subunit beta-1 (Homo sapiens), Q14974. AID 540263, 2011. Potency, µM (top dose mostly 92.2 µM), for inactives: top-dose inhibition of complex formation; active = rising FRET ratio curve, often small or poorly fitted; inconclusive = mostly compound fluorescence or quenching in the first reads; inactive = flat curves in all reads;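 further: potency means the concentration at half of the fitted maximal effect; 0% = DMSO wells and 100% = buffer wells lacking importin beta; nearly all actives have a fitted effect of over 15% in size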
#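 FRET biosensor (snurportin 1 IBB flanked by EYFP and cerulean), 50 nM, with compound 5 min, then 0.125 microM importin beta in PBS, 1 mM DTT, 0.02% Tween-20, 0.1% BSA. CFP/YFP ratio read after 45 min at room temperature; pre-read flags interference.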
# Rango release inh = qHTS Assay for Inhibitors of RanGTP induced Rango (Ran-regulated importin-beta cargo) - Importin beta complex dissociation; Biochemical FRET Rango-importin beta, RanGTP-induced dissociation; 0.071% of 340,000 active; Potency, µM (doses to about 46.1 µM), inactives show at the top dose activity change, negative = inhibition; Snurportin-1 (Homo sapiens) + GTP-binding nuclear protein Ran (Homo sapiens) + Importin …; active means falling FRET ratio curve, often poorly fitted, with flat reads before Ran was added; inconclusive means other falling curves, or compound fluorescence or quenching; inactive means flat or rising ratio curve;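 further: potency means the concentration at half of the fitted maximal effect; % of control where 0% means no effect; nearly all actives have a fitted effect of over 45% in size; -100% = wells without RanGTP and RCC1; the record marks most hits as doubtful in a second field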
#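 Rango (0.1 uM)–importin beta (0.25 uM) complex; RanGTP-RCC1 trigger; 45 min RT; CFP/YFP FRET read.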
# * hit, by the source's call; ? = inconclusive; nt = not tested or not shown.
SMILES,GLA inh pH 4.5,miR-21 FLuc,Rango-impB inh,Rango release inh
CCC(C)(C)NC(=O)C(OC(=O)c1cc2sccc2n1C)c1ccc(OC)cc1 (stereo not given),7,1%,-2.7%,-7%
COc1ccccc1/C=C/C(=O)OCC(=O)N1c2ccccc2CC1C (stereo not given),nt,nt,-1.2%,2%
O=C(CN1CCCCCC1)Nc1ccc(Cl)cc1F,nt,0%,16%,15%
CN(C(=O)c1ccc(COc2ccccc2Cl)o1)c1ccccc1,nt,-29%,2.1%,9%
COc1ccccc1OCC(=O)N/N=C1\CCCCc2ccccc21,0,-2%,-2.4%,6%
CC(C)C(=O)Nc1nnc(-c2ccco2)s1,0,-35%,-3.1%,-4%
O=C(NN=C1CCCCCC1)c1cccnc1,-7,-5%,-2.7%,1%
Cc1ccc(NC(=O)CCC(=O)N/N=C/c2ccc(O)cc2)cc1,nt,1%,7.8%,1%
COc1ccc(N(CC(=O)Nc2ccc(F)cc2)S(=O)(=O)c2ccccc2[N+](=O)[O-])c(OC)c1,-5,7%,-4.5%,-5%
ClC(Cl)(Cl)c1nc2ccccc2n2nncc12,nt,29%,1.2%,-4%
COc1ccc(-c2noc(-c3ccccc3C(=O)NCc3ccco3)n2)cc1,2,-4%,-1.4%,1%
CCC(C)NC(=O)CN1C(=O)c2cccc3cccc1c23 (stereo not given),nt,-5%,?,?
Nc1[nH]n2c(=O)cc(-c3ccccc3)nc2c1N=Nc1ccccc1,-8,-4%,0.4%,24%
C=CCn1c(SCC(=O)NCc2ccco2)nc2sc3c(c2c1=O)CCCC3,-4,-2%,-0.2%,-17%
C#Cc1ccc(CN2CCN(CCCc3ccccc3)C(CCO)C2)cc1 (stereo not given),nt,-4%,1.3%,11%
CCC1CCCCN1C(=O)c1cc(COc2ccc3ncccc3c2)on1 (stereo not given),1,17%,-1.7%,-17%
CN(C)C(=O)c1cc(C(=O)c2ccc(F)cc2F)c[nH]1,nt,-35%,0.1%,8%
COc1ccc(OC)c(NC2=NC3(CCCC3)N=C(N)N2)c1,0,-1%,0.0%,3%
CC1(C)N=C(SCC(=O)Nc2ccc(Cl)cc2)C(c2ccccc2)=N1,1,13%,-1.3%,4%
COc1ccc(N2C(=S)NC3c4cc(Cl)ccc4OC2(C)C3C(=O)N(C)C)cc1 (stereo not given),-3,17%,2.7%,3%
Cc1ccc(S(=O)(=O)CCC(=O)Nc2nnc(-c3cccs3)o2)cc1,nt,nt,0.0%,14%
C=C(C)CSc1nnc2n(Cc3ccccc3)c(=O)c3c4c(sc3n12)CCC4,2,-3%,1.1%,1%
CCN(CC)CCNC(=O)CCc1c(C)nc2c(c(C)nn2-c2ccc(C)c(C)c2)c1C,nt,?,2.4%,1%
O=C(/C=C/c1ccc(OCCCF)cc1)NCc1ccc(Cl)c(Cl)c1,3,1%,-0.9%,6%
CCOC(=O)C1=C(C)Nc2nc3ccccc3n2C1c1cccs1 (stereo not given),8,-2%,9.7%,-7%
CCCS(=O)(=O)N1CCCC(C(=O)NCCN(C)Cc2ccccc2)C1 (stereo not given),3,-5%,-4.2%,13%
COC(=O)[C@H](C)NC(=O)NCc1ccco1,9,-7%,5.5%,0%
CC(C)CC(=O)c1c[nH]c(C(=O)NCc2cccnc2)c1,-2,6%,-7.4%,16%
O=C(Nc1cccc(Br)c1)c1cc2ccccc2o1,8,-37%,5.3%,15%
CC(=O)N1CCN(S(=O)(=O)c2cccc(C(=O)Nc3ccc4c(c3)OCO4)c2)CC1,-14,-6%,7.0%,1%
CN(c1ccc(C(=O)NCCSCc2c(F)cccc2Cl)cc1)S(C)(=O)=O,2,-4%,1.8%,-7%
CCN(CC)S(=O)(=O)c1ccc(N/N=C/c2ccc(OC)c(OC)c2OC)nc1,8,-2%,4.1%,14%
COc1cccc(CNC(=O)C(=O)NCCC2CCCCN2S(=O)(=O)c2cccs2)c1 (stereo not given),nt,nt,1.1%,17%
CC(C)(C)C(=O)CSc1ccc(S(=O)(=O)N2CCCC2)cn1,nt,nt,-2.2%,1%
COc1ccc(C(=O)C2CCCN(Cc3cn[nH]c3-c3ccc(F)cc3)C2)cc1OC (stereo not given),0,-9%,-0.9%,-9%
O=C(CCNS(=O)(=O)c1ccc(Cl)cc1)N1CCOCC1,nt,0%,2.6%,-13%
CN(C)c1ccc(N=Nc2cccc(F)c2)cc1,nt,-72%,0.6%,-2%
CC(C)CN1C2CCCC1CC(NC(=O)c1ccc([N+](=O)[O-])cc1)C2 (stereo not given),nt,0%,-0.6%,6%
CCN(CC)c1ccc(NC2CC(=O)N(CCc3ccc(OC)cc3)C2=O)cc1 (stereo not given),4,-3%,4.1%,0%
O=C(Nc1ccc(Nc2ccccc2)cc1)c1ccccc1,nt,nt,-0.8%,-7%

# An excerpt from above in order of count of non-hydrogen atoms, descending.
SMILES,GLA inh pH 4.5,miR-21 FLuc,Rango-impB inh,Rango release inh
CC(C)CC(=O)c1c[nH]c(C(=O)NCc2cccnc2)c1,-2,6%,-7.4%,16%
O=C(Nc1cccc(Br)c1)c1cc2ccccc2o1,8,-37%,5.3%,15%
CN(C)c1ccc(N=Nc2cccc(F)c2)cc1,nt,-72%,0.6%,-2%

# Additional entries follow:
SMILES,GLA inh pH 4.5,miR-21 FLuc,Rango-impB inh,Rango release inh
COc1ccc2c(c1)OC(O)(C(F)(F)F)CC2=O (stereo not given),4,-6%,-0.5%,3%
NNC(=O)CNC(=O)c1ccc(F)cc1,7,-6%,-1.0%,-1%
O=c1nc2sc3ccccc3n2c(=O)n1-c1ccc(Cl)cc1,1,-56%,3.0%,12%
CCOC(=O)CC1(NC(=O)C2CCC(=O)N(Cc3ccccc3F)C2)CCCCC1 (stereo not given),nt,-1%,0.6%,-18%
Cc1ccnc(NS(=O)(=O)c2ccc(NC(=O)c3ccc(C)o3)cc2)n1,5,-3%,0.8%,1%
COc1cccc(N2CCN(c3ncccn3)CC2)c1,-2,-49%,-1.9%,11%
NC(=O)C1CCN(C(=O)COc2ccc3ccccc3c2Br)CC1,nt,-10%,0.5%,4%
Cc1ccc(S(=O)(=O)NCCCCCC(=O)Nc2ccccc2)cc1,1,-1%,-2.1%,-7%
CC(=O)Nc1nnc(-c2c(-c3ccccc3Cl)noc2C)o1,-1,-2%,-1.0%,13%
COc1ccc(NC(=O)N2CCC(C(=O)c3ccc(F)cc3)CC2)cc1,0,-15%,-1.3%,8%
c1ccc2c(c1)oc1c(Nc3ccc(CN4CCOCC4)cc3)ncnc12,-20,?,0.4%,3%
Cc1nnc(SCC(=O)N2CCN(c3cccc(Cl)c3)CC2)n1C1CC1,nt,nt,0.8%,17%
Cc1noc(C)c1S(=O)(=O)N(CCc1ccccc1)Cc1ccccc1,-1,-8%,0.9%,-10%
O=C(NCCc1cnn(-c2ccccc2)c1)c1cc(COc2c(F)cccc2F)on1,-6,-15%,1.6%,-15%
Cc1ccc(OCc2ccc(C(=O)O)o2)cc1C,nt,-53%,0.8%,-4%
CCN(C[C@H]1N[C@@](C)(C(=O)OC)[C@H]2C(=O)N(Cc3ccccc3)C(=O)[C@@H]12)C(=O)C1CCCCC1,nt,nt,-1.3%,?
CCn1c(C)nc2cc(S(=O)(=O)C(F)F)ccc21,4,-11%,7.5%,15%
CCOC(=O)c1ccc(NC(=O)c2nc[nH]c2C(=O)NC2CCN(C(=O)OC(C)(C)C)CC2)cc1,0,-5%,-5.5%,50%
CCOc1ccc(Br)cc1S(=O)(=O)N1CCSC1,nt,-5%,0.2%,1%
CC(=O)c1ccc(NC(=O)CSc2nc3nc(C)cc(C)n3n2)cc1,8,-14%,0.1%,-9%
COC(=O)[C@H](CCSC)NC(=O)Nc1ccc(OC)cc1,4,-3%,-0.3%,2%
C=CCOc1ccccc1/C=N/NC(=O)c1ccc(Cl)cc1Cl,1,-2%,7.0%,12%
CCCC(O)(c1ccc(Cl)cc1)C(CN1CCOCC1)c1ccccc1 (stereo not given),-4,16%,-4.0%,3%
CC(=O)NNC(=O)c1cc2sccc2s1,-14,-1%,-0.7%,2%
COc1cccc(-c2cc(C(=O)NC3CCCC3)no2)c1,-3,-43%,-1.6%,-8%
O=C(CSc1ccc(F)cc1)Nc1ccc2c(c1)C(=O)NC2=O,nt,3%,-0.9%,-20%
CNC(=S)N/N=C/c1c(C(=O)OC)cnn1-c1ccc(F)cc1F,-1,8%,-11%,-14%
Cc1ccc(C(=O)O)cc1S(=O)(=O)NCC1CCCO1 (stereo not given),3,-2%,1.1%,-6%
C/C(=N\Nc1c(Cl)c(Cl)nc(C(=O)O)c1Cl)c1ccc(O)cc1,nt,-4%,-0.8%,8%
O=C(NCCc1ccc(Cl)cc1)c1ccc2nc[nH]c2c1,1,-33%,0.8%,-5%
CN1CCN(C(=O)/C=C/c2ccc(C#N)cc2)CC1,nt,-4%,-3.3%,2%
CCOC(=O)C1=CN(Cc2ccc(Br)cc2)S(=O)(=O)N(C)C1C (stereo not given),nt,nt,6.3%,14%
C/C(=C/C#N)Nc1ccc(C)cc1,-1,-3%,-6.4%,-9%
Cc1ccc(C(=O)NCCc2n[nH]c(=S)n2C)cc1,6,-22%,-2.8%,21%
O=C(N/N=C/c1c(F)c(F)c(F)c(F)c1F)c1ccc(Cn2cc(Br)cn2)o1,0,-10%,-3.7%,3%
COC(=O)c1ccc(NC(=O)C2CCCCC2C(=O)O)cc1 (stereo not given),4,-2%,-2.0%,0%
Cc1nn(C)cc1C(=O)Nc1cc(Oc2ccc(Cl)cc2)cc([N+](=O)[O-])c1,4,-9%,-0.3%,-11%
CCn1c(/C=C/c2ccccc2[N+](=O)[O-])nc2ccccc2c1=O,10,-25%,?,-9%
CC1CCCC(NC(=O)COC(=O)c2ccccc2NC(=O)c2ccco2)C1C (stereo not given),3,-4%,-3.5%,-4%
O=C(COC(=O)c1ccco1)Nc1cc(S(=O)(=O)N2CCOCC2)ccc1Cl,nt,nt,-1.4%,-1%
COc1ccccc1N1CCN(C(c2cccs2)C(C)NC(=O)C(=O)N2CCOCC2)CC1 (stereo not given),nt,-1%,-4.6%,3%
CC(C)C(c1nnnn1C1CCCC1)N1CCC(C(N)=O)CC1 (stereo not given),-11,-2%,-7.9%,-4%
Cn1cnc(S(=O)(=O)NC2CCN(Cc3c(F)cccc3Cl)CC2)c1,nt,-3%,-3.5%,8%
Cc1ccccc1NC(=O)c1ccccc1NC(=O)Cc1cccc2ccccc12,1,4%,-0.5%,-1%
CCCCn1c(N)c(N(CCOC)C(=O)C2CCN(S(=O)(=O)c3ccc(Cl)cc3)CC2)c(=O)[nH]c1=O,nt,-1%,-0.7%,5%
COc1ccc(/C=C2\C(=O)N(c3c(Cl)cc(Cl)cc3Cl)N=C2NC(=O)c2cccc([N+](=O)[O-])c2)cc1,2,-3%,?,-5%
CCOC(=O)c1ccccc1NC(=O)COC(=O)CSc1ccccc1,nt,nt,6.9%,-14%
Nc1nccc(-c2nn(-c3ccc(Cl)cc3)ccc2=O)n1,2,1%,0.2%,-17%
Cc1ccc(CNC(=O)Nc2ccccc2)c(C)c1,nt,-61%,1.5%,5%
NC(=O)N1CCN(C(=O)c2ccco2)CC1,-3,6%,3.1%,-2%
COc1ccc(C(=O)NCCc2nnc3ccc(SCC(=O)N4CCCCC4)nn23)cc1,nt,1%,2.5%,2%
Cc1ccc(/C=N/NC(=O)c2cccc(NC(=O)c3ccccc3C)c2)o1,nt,-8%,-0.1%,9%
CS(=O)(=O)c1cccc(C(=O)OCC(=O)Nc2ccc3c(c2)OCO3)c1,nt,nt,-1.3%,-12%
Cc1ccc(-n2c(SCC(N)=O)nnc2-c2ccccn2)cc1C,-7,-8%,-0.4%,1%

# Results in Rango release inh, for some of the entries so far:
SMILES,Rango release inh
CC(=O)c1ccc(NC(=O)CSc2nc3nc(C)cc(C)n3n2)cc1,-9%
CCCS(=O)(=O)N1CCCC(C(=O)NCCN(C)Cc2ccccc2)C1 (stereo not given),13%

# These rows are one share of the data; rates above refer to the full screens.
